Assay outcomes deposited in PubChem BioAssay by ICCB-Longwood Screening Facility, Harvard Medical School.
HCMV UL50-53 inh: inhibitors of HCMV UL50-UL53 interaction, biochemical, HTRF; normalized percent inhibition; HCMV UL50-UL53 nuclear egress complex (human cytomegalovirus); inhibition, % (concentration not given with the values); hit rate 0.15% among 190,000; AID 1918969, 2023;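 active = both replicates at 50% or more, plus weaker picks with an unusually low signal ratio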;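 note: stock transfer was 100 nL into about 20 µL; 0% = negative control wells and 100% = wells with untagged competitor protein; inactives centre near -12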
Sa growth inh: S. aureus growth inhibition at 42 and 30 °C, primary screen, LtaS inhibitor project, RN4220, two temperatures | OD600, 20 h, 42 °C; stronger effect = lower value | relative growth, % (concentration not given with the values) | hit rate 0.53% among 170,000 | AID 720641, 2013;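 active = growth at 42 °C up to 50% and 20 or more points under that at 30 °C, or under 10% at both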;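 note: 300 nL library stock went into each well; scaled to the means of positive and negative controls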
GIV Gai3 FP: inhibitors of GIV peptide binding to Galpha-i3, primary screen, biochemical, fluorescence polarization, FITC-GIV GBA peptide, rat Galphai3; hit rate 0.42% among 210,000; percent of control (FP), % (concentration not given with the values); 90 min; stronger effect = lower value; scaled: aluminum fluoride 0%, vehicle 100%; Guanine nucleotide-binding protein G(i) subunit alpha-3 (Rattus norvegicus), P08753;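 active = replicate mean at 85% of control or lower, very high polarization wells dropped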;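 note: wells of about 15 µL received 100 nL stock; the first replicate is given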
Target sequence (P08753 whole entry, looked up): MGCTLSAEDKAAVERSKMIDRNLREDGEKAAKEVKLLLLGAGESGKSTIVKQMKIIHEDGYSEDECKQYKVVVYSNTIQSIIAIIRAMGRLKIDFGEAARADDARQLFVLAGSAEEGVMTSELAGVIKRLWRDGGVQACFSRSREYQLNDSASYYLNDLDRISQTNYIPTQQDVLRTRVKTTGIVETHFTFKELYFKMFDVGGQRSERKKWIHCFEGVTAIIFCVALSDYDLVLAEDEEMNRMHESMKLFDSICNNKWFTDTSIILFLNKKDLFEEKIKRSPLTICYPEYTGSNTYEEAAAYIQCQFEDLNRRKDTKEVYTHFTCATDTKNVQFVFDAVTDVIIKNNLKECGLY
Sa growth inh second temp: second read-out of Sa growth inh, no call of its own (marks repeat the call); relative growth, %; measured here: growth at 30 °C;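 optical density after 20 h as mean of two plates; 100% = untreated growth and lower means inhibition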
An asterisk follows results filed as active; / = no result given; & = joins results of further samples.

SMILES | HCMV UL50-53 inh | Sa growth inh | Sa growth inh second temp | GIV Gai3 FP
O=C(Nc1ccccc1I)c1ccnc(-n2cnnc2)c1 | -12 | 106 | 96 | 102
COc1ccc(-c2cc(NC(=O)Nc3ccccc3)n(-c3ccccc3)n2)cc1 | 1 | 117 | 86 | /
Cc1nc2nc(N(Cc3ccccc3)C(=O)CC(C)C)[nH]n2c(=O)c1Cc1ccccc1Cl | -6 | / | / | 113
NC(=O)C1CCN(C(=O)c2ccc3c(c2)N(Cc2cccc(Cl)c2)C(=O)c2ccccc2S3(=O)=O)CC1 | / | 113 | 93 | 96
CCOC(=O)CSc1nc(SCC(=O)OCC)c2c3c(sc2n1)COC(C)(C)C3 | -10 | / | / | 118
COc1ccc(Br)cc1C1SCC(=O)N1c1ccc(NC(C)=O)cc1 (stereo not given) | -11 | / | / | 103
Cc1cc(C)n(CC(=O)N/N=C/c2sc(N3CCCCC3)nc2-c2cccs2)n1 | -14 | 106 | 87 | /
COc1ccc(C(=O)NCC(c2ccccc2)c2c[nH]c3ccccc23)cc1Cl (stereo not given) | -24 | / | / | 105
Cc1ccccc1N1C(=O)c2ccccc2C1=O | -24 | 112 | 86 | 104
CC1=C(C(=O)Nc2ccccc2C)C(c2ccco2)n2ncnc2N1 (stereo not given) | / | 99 | 92 | 95
O=C(CN1C(=O)C2CCCCN2c2ccc(C(=O)N3CCCC3)cc21)Nc1nccs1 (stereo not given) | -2 | / | / | 101
O=C(Cn1cnc2c(nc3n2CCCCC3)c1=O)NC1CCCCCC1 | 6 | 93 | 98 | 103
COC(=O)CSc1nnc(CNC(=O)c2ccccc2F)n1Cc1ccccc1 | / | 119 | 82 | 101
CCCCNC(=S)Nc1ccc(C)cc1 | 1 | 101 | 93 | 99
CCn1nc(C)c2c1c(=O)n(Cc1ccccc1)c(=O)n2CC(=O)NC(C)CCc1ccccc1 (stereo not given) | 12 | / | / | 102
CC(C)OCCCNC(=O)c1cn(C)c2ccc(S(=O)(=O)N3CCCCCC3)cc2c1=O | 11 | 96 | 94 | 102
O=C(Cc1ccccc1)N1CCC(c2nc3ccccc3[nH]2)CC1 | 4 | 121 | 63 | 98
CNC(=S)NCC(c1ccco1)N1CCCCC1 (stereo not given) | -16 | 109 | 95 | /
O=C(CSc1nc2nc[nH]c2c(=O)[nH]1)NC1CCS(=O)(=O)C1 (stereo not given) | -16 | / | / | 100
CCOC(=O)CSc1ncc(C(F)(F)F)cc1Cl | -8 | / | / | 106
COCC(=O)Nc1c(C(=O)Nc2ccc(C)cc2)oc2ccccc12 | -37 | 113 | 87 | 101
CS(=O)(=O)n1cc(C(=O)C(F)F)c2ccccc21 | 2 | 104 | 93 | 109
O=C(Nc1c[nH]c(=O)[nH]c1=O)c1ccco1 | -1 | 95 | 85 | 100
CN(C)c1ccc(NC(=O)CSc2nnc(C3CC3)n2N)cc1 | -13 | 101 | 97 | /
C=CCc1ccccc1OCCn1c(C(O)CCC)nc2ccccc21 (stereo not given) | -18 | / | / | 106
O=C(CSc1nccc(-c2ccco2)n1)Nc1ccc(F)cc1F | 6 | 95 | 85 | 98
Cc1c(C(=O)Nc2ccc(S(N)(=O)=O)cc2)oc2ccccc12 | -4 | 106 | 99 | 106
CCOc1ccc(S(=O)(=O)N2CCN(c3cc(N(C)C)nc(C)n3)CC2)c(OCC)c1 | -30 | / | / | 98
CCc1ccc(NC(=O)/C=C/c2ccco2)cc1 | -43 | 91 | 72 | 104
CCn1nccc1NC(=O)COc1ccc(Cl)cc1 | -14 | / | / | 100
CC1(NC(=O)CN2CCCCC2c2nc3ccccc3s2)CCS(=O)(=O)C1 (stereo not given) | -30 | 85 | 88 | /
COc1ccc(-n2nc(C(=O)N3CCCCC3c3cccnc3)c(=O)n(C)c2=O)cc1 (stereo not given) | -10 | / | / | 99
COc1ccc(C)cc1NC(c1ccccn1)c1ccc2cccnc2c1O (stereo not given) | -32 | / | / | 105
Cc1ccc2[nH]c(=O)c(C3=NN(C(=O)c4ccco4)C(c4ccco4)C3)c(-c3ccccc3)c2c1 (stereo not given) | 6 | 110 | 101 | /
Cn1c(=O)n(CCOc2ccccc2)c2ccccc21 | / | 114 | 79 | 97
Clc1cc(N2CCOCC2)nc(N2CCOCC2)n1 | -11 | / | / | 102
CCc1cccc(C)c1Nc1c(-c2ccc(N(C)C)cc2)nc2ncccn12 | 0 | 100 | 61 | 183
O=C1CC(c2cc(F)cc(F)c2)Cc2nc(N3CCN(c4ccccc4F)CC3)ncc21 (stereo not given) | -3 | / | / | 97
CNC(=O)NC(=O)C(C)N1c2ccccc2NC(=O)C1CC(=O)Nc1ccc(C)cc1C (stereo not given) | -19 | 99 | 99 | /
O=C(NCC(c1ccc2c(c1)OCO2)N1CCN(c2ccccc2F)CC1)c1ccccc1F (stereo not given) | / | 91 | 92 | 99
Cc1n[nH]c(C)c1S(=O)(=O)N1CCCC(C(=O)Nc2ccc(Br)cc2)C1 (stereo not given) | 1 | 110 | 98 | 102
CC(C)CC(NC(=O)CC12CC3CC(CC(C3)C1)C2)C(=O)O (stereo not given) | -13 | 101 | 90 | 98
CC(C)c1ccc(NC(=O)C2CCN(C(=O)c3ccc(F)cc3)CC2)cc1 | -50 | 96 | 87 | 107
Cc1ccc(C(=O)Nc2ccc3c(c2)NC(=O)CO3)cc1 | -27 | / | / | 107
Cc1nc(-c2noc(-c3cccc(Cl)c3)n2)c(C(F)(F)F)o1 | -3 | 104 | 92 | 103
CC1CCC(C)N1c1cc(C(F)(F)F)cc(C(F)(F)F)c1 (stereo not given) | 25 | 80 | 88 | 102
O=C(NC1CC1)c1ccc(CN(c2ccccc2)S(=O)(=O)c2ccccc2)cc1 | -4 | 118 | 94 | /
O=C(Nc1ccc2c(c1)OCCO2)C1CCCN(C(=O)c2cc(-c3ccncc3)n[nH]2)C1 (stereo not given) | -32 | / | / | 102
CCCOc1ccc(/C(C)=N\NC(=O)c2nnn(-c3nonc3N)c2CSc2ccccc2)cc1OC | -28 | 99 | 78 | 104
CCc1ccc(C(=O)c2cn(CC(=O)Nc3ccc4c(c3)OCO4)c3ccc(Cl)cc3c2=O)cc1 | -39 | 109 | 95 | 108
CCOC(=O)c1c(C)oc2c1c(O)c(N=O)c1ccccc12 | -53 | 25 | 11 | 42*
COc1ccc(Cc2nnc(NC(=O)C3c4ccccc4Oc4ccccc43)s2)cc1 | -9 | / | / | 95
CCC(CC)C(=O)NC1CC(=O)N(c2ccc3c(c2)OCCO3)C1 (stereo not given) | / | 114 | 97 | 97&103
COc1ccc(C(C#N)N2N=C(c3ccccc3)CC2c2ccccc2)cc1OC (stereo not given) | -26 | / | / | 104
O=S1(=O)N(Cc2ccc(Br)cc2F)CCN1Cc1ccc(F)cc1Cl | -17 | / | / | 104
Cc1ccc2nc(CSc3nc4ccccc4n3C)cc(=O)n2c1 | -12 | 108 | 105 | /
Cc1cc(NC(=O)C2CCN(S(=O)(=O)c3c(C)noc3C)CC2)ccc1Br | -18 | 114 | 87 | 106
CC(NC(=O)COc1ccccc1)C(=O)N1CCC(=O)CC1 (stereo not given) | -7 | 89 | 89 | /
O=c1cc(CSc2ccc(Cl)cc2)nc2nc[nH]n12 | 3 | 106 | 99 | 103
O=C1CC(c2ccccc2)CC2=C1C(c1cc3c(cc1Br)OCO3)Nc1ccccc1N2 (stereo not given) | -18 | / | / | 101

(more compounds)
SMILES | HCMV UL50-53 inh | Sa growth inh | Sa growth inh second temp | GIV Gai3 FP
CCn1c2c(c3cc(C(C)(C)C)ccc31)CCCC2=O | 9 | / | / | 106
COCCN1C(=O)c2cc3c(OC)ccc(OC)c3n2CC1(C)C(=O)NC1CCCC1 (stereo not given) | -9 | / | / | 104
CCSc1nn(CC(=O)Nc2ccc(Br)cc2)c(N)c1S(=O)(=O)c1ccc(C)cc1 | -12 | / | / | 99
O=S(=O)(NCc1ccc2c(c1)OCO2)c1ccc(S(=O)(=O)NC2CCCCC2)cc1 | -27 | 89 | 89 | 101
CCOC(=O)c1cnn(C)c1NS(C)(=O)=O | -16 | 108 | 100 | 105
CC(=O)Nc1c(Cl)c(Cl)c(NC(C)=O)c2n[nH]nc12 | -2 | 101 | 98 | 102
CC(C)CCNS(=O)(=O)c1cc(Br)cnc1N | / | 91 | 74 | 100
Cc1ccccc1CN1c2ccccc2-c2nc(SCC(=O)NCCc3ccccc3)ncc2S1(=O)=O | / | 89 | 87 | 100
COc1cc(Br)c(C2C(C(=O)OC3CCCC3)=C(C)NC3=C2C(=O)CC(C)(C)C3)cc1OC (stereo not given) | -4 | / | / | 109
CS(=O)(=O)c1ccc(C(=O)Nc2ccccc2)cc1 | -3 | 108 | 75 | 98
Nc1nnc(CC(=O)N2CCCC2)s1 | 18 | 100 | 102 | 105
O=C(CN1C(=O)C2CCCCN2c2ccc(C(=O)N3CCCCC3)cc21)NC1CCCCC1 (stereo not given) | -33 | / | / | 103
Cc1cc(OCC(=O)Nc2ccc(C(=O)OC3CCCCC3)cc2)cc(C)c1Cl | -29 | 95 | 91 | 99
CCOC(=O)c1c(C)oc2c1c(C=NC1CC(C)(C)NC(C)(C)C1)c(O)c1ccccc12 | 0 | 98 | 100 | 99
O=C(OCc1ccccc1)N1CCOCCN(C(=O)OCc2ccccc2)CCOCC1 | -17 | 106 | 93 | 98
O=S(=O)(c1cccc(Cl)c1)c1nnn2c1nc(NC1CCCCCC1)c1sccc12 | / | 100 | 96 | 103
C[C@H](NC(CCc1ccccc1)C(=O)O)C(=O)N1CCC[C@H]1C(=O)O (stereo not given in full) | -30&-40 | 98&88 | 106&79 | 110&108
Cc1cccc(NC(=O)NCc2cc(=O)n3nc(-c4ccccc4)sc3n2)c1C | -14 | / | / | 104
NC(=O)N/C(CSc1ccc(Cl)cc1)=N\O | -26 | 91 | 86 | 103
O=C(c1cccc(S(=O)(=O)Nc2cc(C(F)(F)F)ccc2Cl)c1)N1CCN(c2ncccn2)CC1 | -25 | 98 | 93 | /
NNC(=O)C1CCN(S(=O)(=O)c2ccccc2N)CC1 | -5 | 108 | 119 | 97
Cc1ccccc1C(=O)NCC1COc2ccccc2O1 (stereo not given) | 2 | 100 | 82 | 101
Cc1ccc(C)c(NC(=O)COC(=O)c2ccc[n+]([O-])c2)c1 | -36 | 96 | 77 | /
O=C1CC(C(=O)N2CCc3ccccc32)CN1CCc1c[nH]c2ccc(Cl)cc12 (stereo not given) | -14 | / | / | 105
C(=N/n1cnnc1)/c1ccsc1 | -10 | / | / | 99
O=C(Cc1c(O)c2ccccc2oc1=O)c1ccc2c(c1)OCCO2 | -4 | 95 | 79 | 103
Cc1ccsc1C(=O)Nc1cc(C(C)(C)C)nn1-c1ccccc1 | 4 | 91 | 95 | /
Cc1ccc2nc(-c3ccc(NC(=O)C(C)C)cc3)[nH]c2c1 | -5 | 120 | 96 | 104
Cc1nnc(NN2CCOCC2)[nH]c1=O | / | 104 | 86 | 96
COc1cc2c(=O)c(C(=O)c3ccc(C)c(C)c3)cn(Cc3ccccc3)c2cc1OC | -8 | 92 | 94 | 98
O=C(NC1CCCC1)c1ccc2c(c1)ncn2C1CCCCCC1 | 0 | 94 | 89 | 105
CCOC(=O)c1cccc(NC(=O)C(C)n2c(C)c3cnn(-c4ccccc4)c(=O)c3c2C)c1 (stereo not given) | 0 | 92 | 70 | 108
Oc1ccccc1C=Nc1ccc2oc(-c3cccc(I)c3)nc2c1 | / | 94 | 93 | 107

Arranged by SMILES length (ascending): 13 of the compounds above
SMILES | HCMV UL50-53 inh | Sa growth inh | Sa growth inh second temp | GIV Gai3 FP
C(=N/n1cnnc1)/c1ccsc1 | -10 | / | / | 99
CCn1nccc1NC(=O)COc1ccc(Cl)cc1 | -14 | / | / | 100
CC(C)CCNS(=O)(=O)c1cc(Br)cnc1N | / | 91 | 74 | 100
CCn1c2c(c3cc(C(C)(C)C)ccc31)CCCC2=O | 9 | / | / | 106
C=CCc1ccccc1OCCn1c(C(O)CCC)nc2ccccc21 (stereo not given) | -18 | / | / | 106
CCOC(=O)c1c(C)oc2c1c(O)c(N=O)c1ccccc12 | -53 | 25 | 11 | 42*
COc1ccc(C)cc1NC(c1ccccn1)c1ccc2cccnc2c1O (stereo not given) | -32 | / | / | 105
Cc1cc(OCC(=O)Nc2ccc(C(=O)OC3CCCCC3)cc2)cc(C)c1Cl | -29 | 95 | 91 | 99
CCOC(=O)CSc1nc(SCC(=O)OCC)c2c3c(sc2n1)COC(C)(C)C3 | -10 | / | / | 118
O=C(NCC(c1ccc2c(c1)OCO2)N1CCN(c2ccccc2F)CC1)c1ccccc1F (stereo not given) | / | 91 | 92 | 99
COc1cc2c(=O)c(C(=O)c3ccc(C)c(C)c3)cn(Cc3ccccc3)c2cc1OC | -8 | 92 | 94 | 98
CCOc1ccc(S(=O)(=O)N2CCN(c3cc(N(C)C)nc(C)n3)CC2)c(OCC)c1 | -30 | / | / | 98
Cc1ccc2[nH]c(=O)c(C3=NN(C(=O)c4ccco4)C(c4ccco4)C3)c(-c3ccccc3)c2c1 (stereo not given) | 6 | 110 | 101 | /

Rows are unselected. About 0.85% of those tested had a hit in this group.
